Assay outcomes (PubChem)
gsp ag: agonists of gsp mutant (McCune-Albright syndrome). gsp mutant cells, cAMP HTRF, 30 min; control for the full effect not named in the record. Potency, µM (series often up to 76.9 µM), without a hit: at the top dose activation (cAMP increase), usual class: activators. 340,000 tested, 0.13% active; active = well fitted activation curve with a large enough effect; inconclusive = small, poorly fitted or top-dose-only effect, or another doubt; inactive = no such curve, though single readings can be large or run the other way; cell line not stated here;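 also: phosphodiesterase inhibitor Ro 20-1724 added with compounds to block cAMP breakdown; potency is read from the fitted curve at half-maximal effect; nearly all actives have a fitted effect of over 60% in size; about a fifth of the inactives were tested at one dose only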
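Cells stably selected in G418 were plated at 2000/well, grown 16-24 hr, then given compounds in DMSO with the PDE inhibitor […] (300 uM solution added) for 30 min at 37C; cAMP was read by HTRF.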
Menin MLL FP FL: displaces fluorescein MLL peptide from human menin; 290,000 tested, under 10 active; FP activity change, % at 61.4 µM; AID 1766; Fluorescence polarization, fluorescein-MLL peptide displacement from menin; inconclusive = falling polarisation curve, or a change in total fluorescence; inactive = total fluorescence flat and polarisation flat or rising; no compound was filed as active; the % refers to the polarisation; negative = inhibition;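 also: % of control where 0% means no effect; inhibitors lower the polarisation; unlabelled MLL peptide was the positive control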
TRPV1 potentiator: enhances activation of the human vanilloid receptor TRPV1 | Q8NER1 | TRPV1-expressing cells, Fluo-8 calcium influx, capsaicin EC20 potentiation; host cell line not named in the record; control for the full effect not named in the record | potentiation, % at 8.33 µM | 320,000 tested, 0.02% active; active means potentiation above 80%; inconclusive means 30% to 80%; inactive means below 30%; also: 0% is about no effect
Target sequence (Q8NER1 whole entry, looked up): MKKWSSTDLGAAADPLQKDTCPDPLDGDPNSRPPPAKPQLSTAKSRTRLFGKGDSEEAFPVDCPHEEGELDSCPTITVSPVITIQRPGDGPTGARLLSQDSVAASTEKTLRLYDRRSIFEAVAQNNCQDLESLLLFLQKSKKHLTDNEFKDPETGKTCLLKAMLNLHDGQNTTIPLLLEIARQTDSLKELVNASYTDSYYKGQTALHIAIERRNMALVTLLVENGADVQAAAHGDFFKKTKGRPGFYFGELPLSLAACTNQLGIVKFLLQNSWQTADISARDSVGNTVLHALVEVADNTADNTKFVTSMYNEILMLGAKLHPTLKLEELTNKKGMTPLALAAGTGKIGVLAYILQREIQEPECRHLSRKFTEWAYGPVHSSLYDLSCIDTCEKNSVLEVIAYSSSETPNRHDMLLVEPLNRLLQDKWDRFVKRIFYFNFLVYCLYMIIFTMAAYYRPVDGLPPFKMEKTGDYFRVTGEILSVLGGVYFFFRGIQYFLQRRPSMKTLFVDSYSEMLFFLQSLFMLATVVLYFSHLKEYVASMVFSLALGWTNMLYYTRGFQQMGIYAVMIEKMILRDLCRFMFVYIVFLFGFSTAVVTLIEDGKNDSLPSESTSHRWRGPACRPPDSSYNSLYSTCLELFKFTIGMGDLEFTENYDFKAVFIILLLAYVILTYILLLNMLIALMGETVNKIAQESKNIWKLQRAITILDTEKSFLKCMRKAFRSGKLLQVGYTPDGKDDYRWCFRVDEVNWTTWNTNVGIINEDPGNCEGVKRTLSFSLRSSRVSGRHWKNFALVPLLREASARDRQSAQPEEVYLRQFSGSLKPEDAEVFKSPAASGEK
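Fluo-8 calcium influx in TRPV1-expressing cells, kinetic read (ex 480/em 520 nm). Compound added and read 3 min for agonist activity, followed by capsaicin at EC20 final and 2 min further read for enhancement.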
D2 PAM: positive allosteric modulators of human D2 dopamine receptor; P14416; DiscoveRx D2 beta-arrestin cells, luminescence, 90 min; 100% = 57 uM dopamine signal; potentiation, % (test concentration not listed); 360,000 tested, 0.23% active; AID 624464; active = potentiation of 50% or more; inconclusive = 30% to 50%; inactive = 30% or less;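 also: compound concentration not given in the record; tested on top of an EC20 dose of dopamine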
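PathHunter D2 cells, attached overnight at 37 deg C, received compound in DMSO plus dopamine at EC20 (50 nM final) for 90 min at 37 deg C. Beta-arrestin recruitment was read as luminescence after 1 h with detection reagent at ambient temperature.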
gsp antagonist: antagonists of gsp mutant (McCune-Albright syndrome); 340,000 tested, 0.4% active; AID 624288; gsp-mutant cells, cAMP HTRF, 30 min; control for the full effect not named in the record; Potency, µM (titrated, usually from 76.9 µM), for inactives: top-dose activity change, negative = inhibition, usual class: inhibitors; active = falling curve of any shape with a large fitted effect; inconclusive = falling curve, mostly with a smaller effect; inactive = flat or rising curve; cell line not stated here;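 also: intracellular cAMP measured with PDE inhibitor Ro 20-1724 present during compound exposure; potency is read from the fitted curve at half-maximal effect; % is scaled to controls: 0 for no effect and ±100 for the full control effect; nearly all actives have a fitted effect of over 65% in size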
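Measurement of cellular cAMP by homogeneous time-resolved fluorescence following a 30 min compound exposure at 37C. The PDE inhibitor […] was present throughout; the assay buffer was DPBS with 0.05% BSA and 0.005% Tween 20.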
Sfp PPTase inh: Sfp phosphopantetheinyl transferase inhibition. Potency, µM, without a hit: max response, negative = inhibition, most hits filed as inhibitors. Q9F4F7. 310,000 tested, 3.5% active. Biochemical Sfp PPTase activity, qHTS. AID 1490; active = well fitted inhibition curve with a large enough effect; inconclusive = small, poorly fitted or top-dose-only effect, or another doubt; inactive = no such curve, though single readings can be large or run the other way;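 also: the enzyme is Sfp with the accession as filed and its product quenches rhodamine fluorescence; potency is read from the fitted curve at half-maximal effect; 0% = enzyme reaction without inhibitor and -100% = no enzyme wells; top concentration of the series not given in the record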
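Compounds were incubated with enzyme (final 15 nM) for 15 min at room temperature before substrate addition started the reaction. Fluorescence at 525 nm excitation, 598 nm emission was recorded immediately and after 30 minutes.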
ClpP mod: qHTS Assay for Activators of ClpP | purified B. subtilis ClpP, FRET peptide cleavage, 20 min | AID 651965, 2013 | 340,000 tested, 1.9% active | Potency, µM (top dose mostly 57.5 µM), inactives show top-dose activity change, negative = active; active = well fitted falling curve with a large enough effect; inconclusive = small, poorly fitted or top-dose-only effect; inactive = no such curve, though single readings can be large or run the other way; also: potency is read from the fitted curve at half-maximal effect; the source files actives as falling curves though it sought activators and does not explain the sign; nearly all actives have a fitted effect of over 65% in size; many hits overshoot -100%
Target sequence (P80244 whole entry, looked up): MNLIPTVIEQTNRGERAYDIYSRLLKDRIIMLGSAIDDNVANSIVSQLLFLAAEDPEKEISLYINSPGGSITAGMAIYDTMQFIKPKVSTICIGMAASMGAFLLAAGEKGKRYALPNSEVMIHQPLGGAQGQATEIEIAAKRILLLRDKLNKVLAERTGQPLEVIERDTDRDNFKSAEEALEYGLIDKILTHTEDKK
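FRET quenching reversal measured ClpP activation: 10 microg/mL B. subtilis ClpP at pH 8 with the FRET-FV decapeptide, read at 430 nm after 320 nm excitation. The 20-min minus 0-min signal was scaled between DMSO/no-enzyme wells and ADEP (5.8 microM final).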
The depositor's hits bear a star; ? = inconclusive; · = no result given; [ ] = dose if it differs, or a comment.

SMILES	gsp ag	Menin MLL FP FL	TRPV1 potentiator	D2 PAM	gsp antagonist	Sfp PPTase inh	ClpP mod
O=[N+]([O-])c1ccc(S(=O)(=O)N2CCN(c3ccccn3)CC2)cc1	-17%	·	·	-11	·	·	-1.3%
COc1cccc(/C=N/NC(=O)c2c(-c3ccccc3)noc2C)c1	-14%	9.0	-18	-13	-9%	-1%	-2.8%
O=C(NCc1ccc2c(c1)OCO2)C(=O)NCC1CCCO1 (stereo not given)	12%[15.4 µM]	-5.5	14	-7	9%	9%	·
Cc1cccc(-n2c(SCC(=O)Nc3cccc(S(=O)(=O)NC4=NCCCCC4)c3)nc3ccccc3c2=O)c1C	-50%[inhibitor]	·	-16	-2	-13%	14%	-4.3%
COc1ccc(CC(=O)NCCc2ccc(Cl)cc2Cl)cc1	12%[15.4 µM]	-0.8	-10	-5	-17%	-8%	·
COc1ccc(CN2CCCC(CNC(=O)c3ccc(F)cc3)C2)cc1OC (stereo not given)	24%	5.6	-1	-12	8%	3%	·
Cc1ccc(C2=NS(=O)(=O)N(C)C(C(=O)NCc3ccco3)=C2)cc1	-75%	1.2	-3	-9	-5%	10%	-6.0%
CCOc1ccc2nc(NCCCNS(=O)(=O)c3ccccc3)c(C#N)cc2c1	-4%	-3.5	-5	5	-12%	1%	5.0%
Cc1cc(C(=O)CN2C(=O)NC3(CCCc4ccccc43)C2=O)c(C)n1Cc1cccs1 (stereo not given)	11%	1.1	0	-4	-3%	9%	-4.5%
CC(C)c1ccc2oc(=O)cc(CN3CCOCC3)c2c1	-24%	5.1	-26	-5	2%	9%	-5.5%
CCN(Cc1ccccc1)S(=O)(=O)c1c(C)n(C)c(=O)n(C)c1=O	12%	·	4	1	13%	·	0.5%
O=C(COC(=O)c1cc([N+](=O)[O-])ccc1N1CCOCC1)c1ccccc1	17%	·	-8	-3	16%	·	0.8%
CCOc1ncccc1C(=O)N(CCC(C)C)c1c(N)n(Cc2ccccc2)c(=O)[nH]c1=O	-17%	·	·	-7	2%	·	·
O=C(/C=C/c1cccc(Br)c1)c1ccc2c(c1)OCO2	-8%[15.4 µM]	·	9	2	-4%	-16%	·
O=S(=O)(Cc1nc2ccccc2s1)c1ccccc1	10%	-1.2	3	-9	-8%	14%	2.3%
CC(C)(C)OC(=O)NCc1ccc(CNC(=O)c2[nH]cnc2C(=O)N[C@@H](Cc2ccccc2)C(=O)OCc2ccccc2)cc1	27%	-1.1	-2	-10	-7%	22%	-1.8%
COCCC(=O)N1CCC(Oc2ccc(C(=O)N3CCCCCCC3)cc2)CC1	-39%[inhibitor]	·	9	-12	4%	15%	-1.9%
CCC(=O)N1CCc2cc(S(=O)(=O)N(C)c3ccc(OC)cc3OC)ccc21	1%	0.4	-2	-1	-21%	3%	-0.5%
Cc1nc2ccccc2nc1N/N=C/c1ccc(O)cc1O	-2%[15.4 µM]	5.2	1	-8	-5%	-2%	·
O=C(NC1CC2CCCC(C1)N2C(=O)Nc1ccccc1Cl)C1CC1 (stereo not given)	-3%	-8.2	8	-3	5%	12%	·
CCCCn1c(N)c(N(C)C(=O)c2ccccc2Oc2ccccc2)c(=O)[nH]c1=O	-7%	·	6	2	-11%	·	-0.5%
CC(=O)N1CCc2cc(S(=O)(=O)NCCC3=CCCCC3)ccc21	7%	·	·	-16	?	·	-0.1%
Cc1noc(C(=O)Nc2cccc(O)c2)c1Cl	-14%[15.4 µM]	6.1	6	-1	-1%	5%	·
O=C(Cc1ccc(Br)cc1)N1CCCCCC1	-2%	0.0	-3	-11	-10%	17%	-6.2%
CCc1c(C)sc(NC(=O)CCc2ccc(OC)cc2)c1C(N)=O	0%	0.5	?	7	4%	2%	1.8%
CCC(=O)Nc1sc2c(c1C(=O)N(C)C)CCCCC2	-33%[inhibitor]	0.7	-5	-4	8%	18%	-1.4%
NC(=O)NC(=O)C(c1ccccc1)N1CCN(S(=O)(=O)Cc2ccccc2)CC1 (stereo not given)	2%	·	9	-8	1%	·	-1.6%
Cc1cc(C)nc(N2CCC(C(=O)Nc3ccc4c(c3)OCO4)CC2)n1	24%	-0.1	-11	-9	0%	6%	-6.2%
COc1ccc(Br)c(C(=O)OCC(=O)N2CCC(Cc3ccccc3)CC2)c1	-3%	·	3	-10	-15%	·	-1.5%
c1ccc(-c2nnc(CN3CCC4(CC3)OCCO4)o2)cc1	13%	-1.9	?	0	10%	8%	-14%
O=c1[nH]nc(CSCc2ccccc2Cl)[nH]1	7%	3.2	7	-14	3%	4%	-1.7%
CN(C)c1ccc(C=NNC(=O)c2cccc3ccccc23)c(Cl)c1	-18%	·	·	-10	-1%	·	37%
O=C(NCCc1c[nH]c2ccccc12)Nc1ccccc1	-7%	-0.9	-13	-4	4%	12%	-2.8%
CCc1c(O)nc(SCC(=O)Nc2ccc(Cl)cc2)n(-c2ccccc2)c1=O	-28%	·	·	-9	·	·	0.3%
Cc1cccc(C(=O)Oc2c(Br)cc(Br)cc2/C=N/NC(=O)c2ccncc2)c1	-4%[15.4 µM]	·	-7	-2	14%	10%	-0.1%
Cc1ccc(F)c(NC(=O)C2CCCCC2C(=O)O)c1 (stereo not given)	?	1.7	2	11	-3%	8%	0.9%
CC(C)(C)OC(=O)N1CCC(c2c(C(=O)NCC3CCN(C4CCCC4)C3)cnn2-c2ccccc2)CC1 (stereo not given)	-38%[inhibitor]	-1.2	0	-40	-19%	3%	-1.6%
CCn1nc(C)c(CN2CCC(Oc3ccc(C(=O)N4CCCC4)cc3)CC2)c1C	71%	2.9	29	-5	6%	25%	-1.2%
COc1ccc(C2C3=C(CC(C)(C)CC3=O)Oc3ncn(Cc4ccccc4)c(=N)c32)cc1 (stereo not given)	14%	4.1	-9	1	-5%	9%	1.3%
C/C(=N\N(C)C)C1=C(O)c2ccccc2C1=O	-58%[inhibitor]	1.1	-3	3	15%	9%	-1.6%
COc1cc2cc(CCOC(=O)c3ccc(C#N)cc3)oc(=O)c2cc1OC	·	·	-3	-5	-15%	·	-3.9%
Cc1cc(S(=O)(=O)N2CCN(c3ccccn3)CC2)ccc1F	?	-1.3	-16	0	-11%	6%	-20%
CCOc1cccc(=O)c2c(C)n(-c3ccc(C(=O)O)cc3)c(C)c12	1%[15.4 µM]	?	-4	-26	-8%	28µM*	-5.7%
COc1ccc(Cn2c(=O)[nH]c3cc(C(=O)N4CCN(c5ccccc5F)CC4)ccc3c2=O)cc1	-8%[15.4 µM]	0.5	6	-9	12%	9%	·
O=C(CCS(=O)(=O)c1ccccc1)Nc1nc2c(s1)COc1ccccc1-2	?	9.9	·	-3	?	-9%	-17%
O=C(NCc1ccccc1)C1=C[C@@H](c2ccc(Br)cc2)C[C@@H](OCc2ccc(CO)cc2)O1	·	0.7	-21	-18	?	12%	-0.3%
COc1ccc(C(=O)Nc2nnc(Cc3cccs3)s2)cc1OC	?	0.4	-1	-13	-5%	3%	-11%
CCOc1ccc(NC(=S)NC(=O)/C=C/c2ccc(C)cc2)c([N+](=O)[O-])c1	-1%	-3.5	9	23	-11%	-22%	-2.2%
CCOC(=O)Nc1cc(NC(=O)OCC)c(C)nc1C	-38%[inhibitor]	-5.7	·	0	6%	3%	-0.3%
CC(Cc1c[nH]c2ccccc12)C(=O)NCc1ccco1 (stereo not given)	-4%[15.4 µM]	-5.2	9	-9	6%	9%	·

Another view of some results above:
Values run as follows: gsp ag, Menin MLL FP FL, TRPV1 potentiator, D2 PAM, gsp antagonist, Sfp PPTase inh, ClpP mod
CCOc1cccc(=O)c2c(C)n(-c3ccc(C(=O)O)cc3)c(C)c12
  1%[15.4 µM], ?, -4, -26, -8%, 28µM*, -5.7%
COc1ccc(Cn2c(=O)[nH]c3cc(C(=O)N4CCN(c5ccccc5F)CC4)ccc3c2=O)cc1
  -8%[15.4 µM], 0.5, 6, -9, 12%, 9%, ·
O=C(CCS(=O)(=O)c1ccccc1)Nc1nc2c(s1)COc1ccccc1-2
  ?, 9.9, ·, -3, ?, -9%, -17%

(continued)
SMILES	gsp ag	Menin MLL FP FL	TRPV1 potentiator	D2 PAM	gsp antagonist	Sfp PPTase inh	ClpP mod
CC(=O)Nc1cccc(OCCCNS(=O)(=O)c2ccc(F)cc2)c1	5%	-0.1	11	-23	-18%	6%	-1.0%
Cc1c(NC(=S)NC(=O)C(C)(C)C)cccc1[N+](=O)[O-]	2%[15.4 µM]	2.4	-38	-11	-4%	-30%	-4.9%
S=c1nc[nH]c2c1cnn2Cc1ccccc1	-21%	1.0	?	-5	3%	25%	·
CCO[C@H]1OC(C(=O)NCc2nc3ccccc3[nH]2)=C[C@@H](C2CCCCC2)[C@@H]1CCCO	?	-2.5	12	-8	-24%	7%	-1.2%
O=C(NCc1cn(-c2ccccc2)nc1-c1ccccc1)c1ccc([N+](=O)[O-])cc1	11%	0.3	2	1	-11%	-7%	0.5%
Cc1cc(NC(=O)CN2CCOCC2)n(-c2ccccc2)n1	-6%[15.4 µM]	0.0	3	-12	-3%	18%	·
O=C(c1ccco1)N1CCN(Cc2nc(-c3cccs3)no2)CC1	-5%	1.1	0	15	6%	9%	0.7%
CCCC(=O)NC(Nc1ccc(S(=O)(=O)Nc2cc(C)on2)cc1)(C(=O)OCC)C(F)(F)F (stereo not given)	4%	1.0	-2	-5	-8%	18%	1.7%
C=CCn1c(SCC(=O)NCCc2ccccc2)nc2c([nH]c3ccccc32)c1=O	6%[15.4 µM]	·	-4	0	13%	20%	-3.6%
Cc1ccc(Nc2ccc(NCc3ccccc3)nn2)cc1C	-43%[inhibitor]	-2.4	4	-24	-31%	-12%	-1.3%
CC1CCc2c(C(=O)N3CCN(S(=O)(=O)c4cccs4)CC3)csc2C1 (stereo not given)	-4%	0.3	-16	-23	-11%	3%	0.4%
CCOc1ccc2nc(SCC(=O)NCc3ccccc3OC)[nH]c2c1	-4%	8.2	-11	0	-1%	9%	·
O=C(COC(=O)c1ccc(O)cc1)NCC1COc2ccccc2O1 (stereo not given)	4%	·	0	-16	3%	·	-2.3%
Cc1cc(C(=O)NCC2CCCO2)n(-c2ccccc2)n1 (stereo not given)	-1%	-0.7	·	-4	9%	5%	1.4%
Nc1ccc(C(=O)Nc2ccc3c(O)cc(S(=O)(=O)O)cc3c2)cc1	-12%	·	·	1	-5%	·	·
COc1cc(C=O)ccc1OCCOc1ccccc1[N+](=O)[O-]	22%	·	-1	-10	-10%	-2%	-1.8%

No enrichment for hits. Share with any hit: about 5.1%.
